# HIV Env fusion: blocks HIV Env-driven cell-cell fusion; HeLa-JRFL Env/CEM21 cell fusion, luciferase; 360,000 compounds, 1.1% hits; inhibition, % at 12.3 µM;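 active = mean replicate inhibition score of at least 50 and every replicate individually at or above 50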;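 note: 0% = plate neutral controls and 100% = maraviroc near 300 nM; one replicate is shown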
# * hit, by the source's call; [ ] = remark or other dose. Only part of the results is shown; the hit share may differ from the screen's.
SMILES,HIV Env fusion
CN1C(=O)c2cc(NC(=O)c3cccc(C(F)(F)F)c3)ccc2OC[C@H]2O[C@H](CC(=O)O)CC[C@@H]21,-7[16.7 µM]
C[C@@H]1CN([C@@H](C)CO)C(=O)c2cc(C#CC3(O)CCCC3)cnc2O[C@H]1CN(C)C(=O)C1CC1,-9[16.7 µM]
CN(C)c1ccc2c(c1)[C@@H]1C[C@@H](CC(=O)NCc3cc(F)ccc3F)O[C@H](CO)[C@@H]1O2,15[16.7 µM]
C[C@H]1CN([C@@H](C)CO)S(=O)(=O)c2ccc(C3=CCCCC3)cc2O[C@@H]1CN(C)Cc1ccccc1,2[16.7 µM]
COc1ccccc1CNC(=O)C[C@H]1C[C@H]2c3cc(NC(=O)CN(C)C)ccc3O[C@H]2[C@H](CO)O1,-4[16.7 µM]
C[C@@H]1CN([C@H](C)CO)C(=O)Cc2cc(NS(=O)(=O)c3ccc(Cl)cc3)ccc2O[C@H]1CN(C)Cc1ccc(C(=O)O)cc1,12[16.7 µM]
CN1C(=O)c2cc(NC(=O)c3ccc(F)c(F)c3)ccc2OC[C@@H]2O[C@@H](CC(=O)N[C@H]3CCN(Cc4ccccc4)C3)CC[C@@H]21,-1[16.7 µM]
CCCCS(=O)(=O)NCC1CCN(C(=O)C(=O)c2cc3ccccc3o2)CC1,-22
COc1ccc(CN(C)C[C@H]2OCCCC[C@H](C)Oc3ccc(NC(=O)NC(C)C)cc3C(=O)N([C@@H](C)CO)C[C@H]2C)cc1,4[16.7 µM]
C[C@H]1CN([C@@H](C)CO)C(=O)c2cc(NC(=O)Cc3cn(C)c4ccccc34)ccc2O[C@H]1CN(C)Cc1ccncc1,-1[16.7 µM]
C[C@@H]1CCCCO[C@H](CN(C)C(=O)CCC(F)(F)F)[C@H](C)CN([C@@H](C)CO)C(=O)c2cc(NS(C)(=O)=O)ccc2O1,15[16.7 µM]
CCC(=O)N1[C@@H]2c3cccc(=O)n3C[C@@H]2[C@@H](CO)[C@@H]1C(=O)N1CCCCC1,-8[16.7 µM]
C[C@@H]1ON(C)[C@H]2C[C@H]3c4cc(-c5cc6ccccc6o5)ccc4CCN3C[C@@H]12,-18
CC(=O)N(C)C[C@H]1Oc2cc(C3=CCCCC3)ccc2S(=O)(=O)N([C@H](C)CO)C[C@@H]1C,7[16.7 µM]
CC(C)NC(=O)Nc1ccc2c(c1)C(=O)N([C@H](C)CO)C[C@@H](C)[C@H](CN(C)C(=O)Cc1ccccc1)OCCCC[C@@H](C)O2,-156[16.7 µM]
CN(C)Cc1cn(CC[C@H]2CC[C@H](NC(=O)Cc3cccnc3)[C@@H](CO)O2)nn1,19[16.7 µM]
COCC(=O)Nc1ccc2c(c1)[C@@H]1C[C@@H](CC(=O)NCc3ccc4c(c3)OCO4)O[C@@H](CO)[C@@H]1O2,-7[16.7 µM]
C[C@H]1CN([C@@H](C)CO)C(=O)c2cc(NC(=O)CCCN(C)C)ccc2O[C@H]1CN(C)Cc1ccc2c(c1)OCO2,-9[16.7 µM]
O=C([C@@H]1[C@@H](CO)[C@@H]2Cn3c(cccc3=O)[C@@H]2N1Cc1ccccc1Cl)N1CCCCC1,1[16.7 µM]
C[C@@H]1CN([C@@H](C)CO)C(=O)c2cccc(NC(=O)Nc3ccc(F)cc3)c2O[C@H]1CN(C)S(=O)(=O)c1cn(C)cn1,-23[16.7 µM]
C[C@H]1[C@H](c2ccccc2)Oc2cc(Br)ccc2S(=O)(=O)N1Cc1ccc(Cl)cc1,-15
CN1C(=O)c2cc(NC(=O)Cc3cccs3)ccc2OC[C@@H]2O[C@@H](CC(=O)N[C@H]3CCN(Cc4ccccc4)C3)CC[C@@H]21,-10[16.7 µM]
C[C@H]1CN([C@@H](C)CO)C(=O)c2cc(NS(=O)(=O)c3ccccc3)ccc2O[C@@H]1CN(C)S(=O)(=O)c1ccc(F)cc1,2[16.7 µM]
COc1ccc2c3c([nH]c2c1)[C@@H](CO)N(Cc1ccccc1)CC31CCN(C(=O)c2cccnc2)CC1,-162[16.7 µM]
C[C@@H]1CN([C@@H](C)CO)C(=O)c2c(c3ccccc3n2C)-c2ccccc2CO[C@H]1CN(C)Cc1cccc(C(=O)O)c1,8[16.7 µM]
CCCC(=O)Nc1ccc2c(c1)C(=O)N(C)C[C@@H](OC)[C@H](C)CN(Cc1nccs1)[C@H](C)CO2,35[16.7 µM]
Cc1ccc(S(=O)(=O)N(C)C[C@@H]2OCCCC[C@@H](C)Oc3ccc(N(C)C)cc3C(=O)N([C@@H](C)CO)C[C@H]2C)cc1,29[16.7 µM]
COc1cccc(S(=O)(=O)Nc2ccc3c(c2)[C@@H]2C[C@H](CC(=O)NC4CCCCC4)O[C@@H](CO)[C@@H]2O3)c1,26[16.7 µM]
CN1c2ccc(-c3ccccc3)cc2[C@H]2[C@H](CCN2C(=O)NC2CCCCC2)[C@@H]1CO,33[16.7 µM]
O=C(O)C[C@H]1C[C@H]2c3cc(NC(=O)Nc4ccc(C(F)(F)F)cc4)ccc3O[C@H]2[C@@H](CO)O1,0[16.7 µM]
CCC(=O)N1CC2(CN(Cc3ccc(OC)cc3)C2)c2c(n(C)c3cc(OC)ccc23)[C@H]1CO,1[16.7 µM]
COCCCNC(=O)C[C@H]1C[C@@]2(C(=O)OC)C(=C[C@H](COCc3ccccc3)O[C@@H]2C)N(Cc2ccc3c(c2)OCO3)C1=O,-8
CO[C@@H]1CN(C)C(=O)c2ccc(NC(=O)Nc3ccc4c(c3)OCO4)cc2OC[C@@H](C)NC[C@@H]1C,-30[16.7 µM]
O=C(C[C@H]1C[C@H]2c3cc(NC(=O)C4CCOCC4)ccc3O[C@H]2[C@@H](CO)O1)NCc1cc(F)ccc1F,12[16.7 µM]
C[C@H]1CN([C@@H](C)CO)C(=O)Cc2cc(NS(=O)(=O)c3cn(C)cn3)ccc2O[C@@H]1CN(C)Cc1ccc(C(F)(F)F)cc1,-6[16.7 µM]
C[C@H]1CN([C@@H](C)CO)C(=O)c2cccc(NC(=O)c3cnccn3)c2O[C@H]1CN(C)S(=O)(=O)c1ccc(F)cc1,-11[16.7 µM]
COc1ccc(S(=O)(=O)N(C)C[C@H]2Oc3c(NC(=O)Nc4ccc(F)cc4)cccc3C(=O)N([C@H](C)CO)C[C@@H]2C)cc1,-16[16.7 µM]
COCCNC(=O)c1cc2c(c(-c3cccc(-c4cccc(OC)c4)c3)n1)[C@@H](CCO)N(S(=O)C(C)(C)C)C2 (stereo not given in full),-37[16.7 µM]
C[C@@H]1CN([C@@H](C)CO)S(=O)(=O)c2ccc(C#CCN(C)C)cc2O[C@H]1CN(C)S(=O)(=O)c1cccc(F)c1,32[16.7 µM]
C[C@H]1CN([C@@H](C)CO)C(=O)c2cccc(NS(=O)(=O)c3ccccc3)c2O[C@@H]1CN(C)S(=O)(=O)c1cccs1,-22[16.7 µM]
C[C@@H]1CCCCO[C@@H](CN(C)C(=O)Nc2ccccc2)[C@@H](C)CN([C@@H](C)CO)C(=O)c2cc(N(C)C)ccc2O1,-3[16.7 µM]
C[C@H]1CN([C@@H](C)CO)C(=O)c2cc(/C=C/c3ccccc3)cnc2O[C@H]1CN(C)C(=O)CN1CCOCC1,-17[16.7 µM]
C[C@H](CO)N1C[C@H](C)[C@@H](CN(C)CC2CCCCC2)OCCCC[C@H](C)Oc2ccc(NC(=O)c3ccncc3)cc2C1=O,7[16.7 µM]
Cc1cccc(N2O[C@H]3C=C[C@@H]2C3)n1,0
CC(C)NC(=O)Nc1ccc2c(c1)CC(=O)N([C@@H](C)CO)C[C@H](C)[C@@H](CN(C)S(=O)(=O)c1ccccc1)O2,-8[16.7 µM]
Cn1cc(CCOCc2ccccn2)c2ccccc21,-24
C[C@H](CO)N1C[C@H](C)[C@H](CN(C)Cc2ccc(C(=O)O)cc2)Oc2c(NC(=O)Nc3cccc4ccccc34)cccc2C1=O,3[16.7 µM]
COc1ccc(NC(=O)N(C)C[C@@H]2Oc3ccc(N(C)C)cc3C(=O)N([C@H](C)CO)C[C@@H]2C)cc1,-1[16.7 µM]
COc1cccc(CNC(=O)[C@H]2CCCN2)c1,9
COc1ccccc1CNC(=O)C[C@H]1C[C@@H]2c3cc(NC(=O)c4ccc5c(c4)OCO5)ccc3O[C@@H]2[C@@H](CO)O1,-2[16.7 µM]
O=C(C1CCCC1)N1CC2(C1)[C@@H](c1ccccc1)[C@H](CO)N2Cc1ccccc1F,15[16.7 µM]
C[C@@H]1CN([C@@H](C)CO)C(=O)c2cc(-c3ccc(C(=O)N(C)C)cc3)cnc2O[C@@H]1CN(C)C(=O)c1ccncc1,17[16.7 µM]
CCO[C@@H]1OC(C(=O)N2CCCCCCC2)=C[C@H](C2CC2)[C@H]1CCCO,-6[16.7 µM]
CN1C(=O)c2cc(NC(=O)c3cnccn3)ccc2OC[C@H]2O[C@H](CC(=O)N[C@H]3CCN(Cc4ccccc4)C3)CC[C@@H]21,-12[16.7 µM]
COc1ccccc1C(=O)Nc1ccc2c(c1)C(=O)N(C)[C@H]1CC[C@H](CC(=O)NCCc3ccncc3)O[C@H]1CO2,3[16.7 µM]
C[C@H]1CN([C@@H](C)CO)C(=O)CCCn2cc(nn2)CO[C@H]1CN(C)S(=O)(=O)c1ccccc1,12[16.7 µM]
C[C@H](CO)N1C[C@H](C)[C@H](CN(C)S(=O)(=O)c2ccccc2C#N)OCc2ccccc2-c2c(n(C)c3ccccc23)C1=O,53[16.7 µM]
C[C@@H]1CCCCO[C@@H](CN(C)C(=O)Nc2ccccc2)[C@H](C)CN([C@H](C)CO)C(=O)c2cc(NC(=O)Nc3ccccc3)ccc2O1,-37[16.7 µM]
C[C@H](CO)N1C[C@H](C)[C@H](CN(C)Cc2ccc(Cl)c(Cl)c2)Oc2ccc(NC(=O)c3ccncc3)cc2CC1=O,12[16.7 µM]
C[C@@H]1CN([C@@H](C)CO)C(=O)c2cc(C#CC(C)(C)O)cnc2O[C@H]1CN(C)Cc1cccc(F)c1,-10[16.7 µM]

# Not a retest: 6 of the compounds above.
SMILES,HIV Env fusion
COc1cccc(CNC(=O)[C@H]2CCCN2)c1,9
COc1ccccc1CNC(=O)C[C@H]1C[C@@H]2c3cc(NC(=O)c4ccc5c(c4)OCO5)ccc3O[C@@H]2[C@@H](CO)O1,-2[16.7 µM]
O=C(C1CCCC1)N1CC2(C1)[C@@H](c1ccccc1)[C@H](CO)N2Cc1ccccc1F,15[16.7 µM]
C[C@@H]1CN([C@@H](C)CO)C(=O)c2cc(-c3ccc(C(=O)N(C)C)cc3)cnc2O[C@@H]1CN(C)C(=O)c1ccncc1,17[16.7 µM]
CCO[C@@H]1OC(C(=O)N2CCCCCCC2)=C[C@H](C2CC2)[C@H]1CCCO,-6[16.7 µM]
CN1C(=O)c2cc(NC(=O)c3cnccn3)ccc2OC[C@H]2O[C@H](CC(=O)N[C@H]3CCN(Cc4ccccc4)C3)CC[C@@H]21,-12[16.7 µM]

# Later entries.
SMILES,HIV Env fusion
CCCNC(=O)N[C@@H]1CC[C@H](CCn2cc(-c3cccc(F)c3)nn2)O[C@@H]1CO,-2[16.7 µM]
COc1cccc(NC(=O)C[C@H]2CC[C@H]3[C@@H](COc4ccc(NC(=O)c5ccccc5F)cc4C(=O)N3C)O2)c1,-7[16.7 µM]
CO[C@@H]1CN(C)C(=O)c2ccc(NC(=O)Nc3cccc(F)c3)cc2OC[C@H](C)NC[C@H]1C,-10[16.7 µM]
COc1ccc(-c2ccc3c(c2)[C@H]2[C@H](CCN2C(=O)C2CCC2)[C@H](CO)N3C)cc1,-14[16.7 µM]
N#C[C@@H]1[C@@H](c2ccccc2C2=CCCC2)[C@@H](CO)N1C(=O)NC1CCCC1,-1[16.7 µM]
O=C([C@@H]1[C@@H](CO)[C@@H]2Cn3c(cccc3=O)[C@@H]2N1Cc1cocn1)N1CCC(Cc2ccccc2)CC1,7[16.7 µM]

# Sorted by formula weight (rising): 3 of the compounds above.
SMILES,HIV Env fusion
N#C[C@@H]1[C@@H](c2ccccc2C2=CCCC2)[C@@H](CO)N1C(=O)NC1CCCC1,-1[16.7 µM]
COc1ccc(-c2ccc3c(c2)[C@H]2[C@H](CCN2C(=O)C2CCC2)[C@H](CO)N3C)cc1,-14[16.7 µM]
CO[C@@H]1CN(C)C(=O)c2ccc(NC(=O)Nc3cccc(F)c3)cc2OC[C@H](C)NC[C@H]1C,-10[16.7 µM]

# Compound activity (PubChem)
